Screens (PubChem BioAssay)
MLL AF4-AF9 inh = blocks AF4 peptide binding to human AF9; hit rate 0.47% among 350,000; P42568; inhibition, % at 10 µM; AlphaScreen, biotin-AF4 peptide binding to FLAG-AF9;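 active = every replicate reaching a set inhibition limit, whatever the replicate mean, cut at about 25% in these data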;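 note: 0% = plate neutral control median and 100% = total signal loss; the record names both 10 and 1 µM as test concentration; the first replicate is given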
Target sequence (P42568 whole entry, looked up): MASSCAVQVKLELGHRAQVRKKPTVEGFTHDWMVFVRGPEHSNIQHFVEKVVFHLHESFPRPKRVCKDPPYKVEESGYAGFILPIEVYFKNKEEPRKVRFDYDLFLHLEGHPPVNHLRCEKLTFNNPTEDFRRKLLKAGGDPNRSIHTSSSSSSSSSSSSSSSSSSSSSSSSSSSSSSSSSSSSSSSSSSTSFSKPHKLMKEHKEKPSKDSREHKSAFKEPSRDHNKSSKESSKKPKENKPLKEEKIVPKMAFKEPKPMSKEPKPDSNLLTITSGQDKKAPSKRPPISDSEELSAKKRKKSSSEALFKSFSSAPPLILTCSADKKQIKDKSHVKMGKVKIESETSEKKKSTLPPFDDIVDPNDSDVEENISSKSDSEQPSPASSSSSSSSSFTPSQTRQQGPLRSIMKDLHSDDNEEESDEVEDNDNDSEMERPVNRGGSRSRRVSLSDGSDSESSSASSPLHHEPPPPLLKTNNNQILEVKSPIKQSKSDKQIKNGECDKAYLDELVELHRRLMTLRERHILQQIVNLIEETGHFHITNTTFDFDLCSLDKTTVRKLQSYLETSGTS
FGF22 binding = shifts melting point of recombinant human FGF22; recombinant FGF22 thermal shift, SYPRO orange fluorescence; percent of sucrose octasulfate shift, DMSO zero; calls only at 9.99 µM; hit rate 1.5% among 340,000; AID 651658;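 active = melting point raised past a set limit in the mean and every replicate; three in four hits are not shown here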
Target sequence (Q9HCT0 whole entry, looked up): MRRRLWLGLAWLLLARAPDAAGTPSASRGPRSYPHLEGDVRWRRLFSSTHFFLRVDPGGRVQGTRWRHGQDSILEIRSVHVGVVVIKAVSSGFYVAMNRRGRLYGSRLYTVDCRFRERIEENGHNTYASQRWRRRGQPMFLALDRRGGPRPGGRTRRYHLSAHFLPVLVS
Ecoli rRNA inh = inhibits bacterial ribosomal RNA function over humanized ribosomes; E. coli WT GFP vs humanized-ribosome RFP mutants, fluorescence, 24 h; stronger effect = lower value; DMSO median 0, no signal -100; GFP signal change (wild-type ribosome), % (test concentration not listed); hit rate 1.6% among 350,000; AID 720706;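 active = significant combined selectivity score with lowered wild-type GFP, culture density cut under 30%, mutant RFP and density less affected; inactive = any of these conditions unmet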; note: one replicate is shown; some compounds called inactive have numbers as strong as hits
Ecoli rRNA inh OD600 = also measured in Ecoli rRNA inh; calls as there; OD600 change, %; measured here: OD600 growth;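 optical density of the mix in the first replicate; 0 = DMSO median and -100 = no signal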
Ecoli rRNA inh RFP = second read-out of Ecoli rRNA inh, no call of its own (marks repeat the call); RFP signal change, %; measured here: RFP humanized mutant strains;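 first replicate; 0 = DMSO median and -100 = no signal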
The depositor's hits bear a star; i = inactive; . = not tested or not shown; & = joins results of further samples. A portion of the library, so the mix of outcomes need not match the whole.

Values in the order: MLL AF4-AF9 inh	FGF22 binding	Ecoli rRNA inh	Ecoli rRNA inh OD600	Ecoli rRNA inh RFP
(1) C[C@@H]1CN([C@H](C)CO)C(=O)Cc2cc(NC(=O)Nc3ccc4c(c3)OCO4)ccc2O[C@H]1CN(C)Cc1ccc2c(c1)OCO2
  3.4	i	2	-10	12
(2) COc1ccccc1S(=O)(=O)N(C)C[C@H]1OCc2ccccc2-c2ccccc2C(=O)N([C@@H](C)CO)C[C@@H]1C
  -2.6	i	-1	-1	0.5
(3) COc1ccccc1C(=O)N1C[C@H]2[C@@H](c3ccccc31)[C@H](CO)N2C(=O)C1CCCC1
  0.4	i	-1	1	-3.6
(4) C[C@@H]1CN([C@@H](C)CO)C(=O)c2cccc(NC(=O)Nc3ccc4c(c3)OCO4)c2O[C@@H]1CN(C)C(=O)Nc1ccc2c(c1)OCO2
  17	i	-54	-80	-16
(5) O=C(Nc1ccccc1F)N[C@@H]1CC[C@H](CCNC(=O)C2CCOCC2)O[C@@H]1CO
  -0.9	i	1	7	-2.3
(6) CCCS(=O)(=O)NC(=O)C1(C)CCN(C(=O)c2cc(OC)c(OC)c(OC)c2)C1 (stereo not given)
  -1.6	i	4	6	0.4
(7) CCc1ccc(C(O)c2ncc(-c3ccc(Cl)cc3)[nH]2)cc1 (stereo not given)
  1.7	i	-4	34	5.6
(8) CCOC1=C2[C@H](c3cccc(Cl)c3)N(S(=O)(=O)c3ccc(C)cc3)C[C@H]2n2c(=O)n(-c3ccccc3)c(=O)n2C1
  8.9	i	-5	4	6.0
(9) Cc1ncc2c(n1)NC(=O)NC2
  -0.9	i	12	16	-5.1
(10) CC(=O)c1ccc(NC(=O)c2ccc(N3CCCC3=O)cc2)cc1
  -26	i	5	8	-0.7
(11) Oc1c(CN2CCCCC2)ccc2cccnc12
  14	i	-13*	6.1*	4.2*
(12) COc1ccc(S(=O)(=O)N(C)C[C@H]2Oc3ccc(NS(=O)(=O)c4ccc(F)cc4)cc3C(=O)N([C@H](C)CO)C[C@H]2C)cc1
  1.0	i	-2	-7	2.1
(13) CCCNC(=O)N1CC2(C1)[C@@H](c1ccccc1)[C@@H](CO)N2C(=O)c1cccnc1
  -14	i	-5	10	-3.4
(14) Cc1noc(C)c1S(=O)(=O)Nc1ccc2c(c1)C(=O)N([C@@H](C)CO)C[C@H](C)[C@H](CN(C)CC1CC1)O2
  -0.7	i	4	5	-2.4
(15) C[C@H](CO)N1C[C@H](C)[C@@H](CN(C)C(=O)Nc2ccc(F)cc2)Oc2ccc(NC(=O)Nc3ccc(C(F)(F)F)cc3)cc2C1=O
  -9.0	i	-2	-4	1.3
(16) COc1ccc2c3c([nH]c2c1)[C@@H](CO)NCC31CCN(S(=O)(=O)c2cccs2)CC1
  3.3	i	-10	-14	-0.7
(17) CO[C@H]1CN(C)C(=O)c2cc(NC(C)=O)ccc2OC[C@@H](C)N(Cc2ccccn2)C[C@@H]1C
  1.4	i	1	0	-2.0
(18) COc1cc(OC)c2c3c(c(C4CCCCC4)nc2c1)CCCC3
  0.7	i	-1	3	2.0
(19) CNC[C@H]1Oc2cc(C#CC3(O)CCCC3)ccc2S(=O)(=O)N([C@H](C)CO)C[C@@H]1C
  0.6	i	7	3	-2.7
(20) O=C(Nc1ccc2c(c1)[C@@H]1C[C@H](CC(=O)N3CCc4ccccc4C3)O[C@H](CO)[C@@H]1O2)C1CCOCC1
  -1.0	i	5	1	1.8
(21) COCC(=O)Nc1ccc2c(c1)OC[C@H](C)N(Cc1ccncc1)C[C@H](C)[C@H](OC)CN(C)C2=O
  0.5	i	-1	6	-2.4
(22) C=CCN(c1ccccc1OC)S(=O)(=O)c1ccc(Cl)c(C(=O)NCc2ccco2)c1
  -0.1	i	0	-27	-5.8
(23) COc1ccc(S(=O)(=O)Nc2ccc3c(c2)C(=O)N([C@@H](C)CO)C[C@H](C)[C@H](CN(C)C(=O)CCCN(C)C)OCCCC[C@@H](C)O3)cc1
  -0.8	i	0	2	0.1
(24) COc1ccc(CN(C)C[C@H]2Oc3ccc(NC(=O)Nc4ccc5c(c4)OCO5)cc3C(=O)N([C@@H](C)CO)C[C@@H]2C)cc1
  11	i	3	6	0.7
(25) CCCNC(=O)C[C@@H]1C[C@H]2c3cc(NC(=O)NC4CCCC4)ccc3O[C@H]2[C@@H](CO)O1
  -1.2	i	5	7	-3.3
(26) C[C@H]1CN([C@@H](C)CO)S(=O)(=O)c2ccc(-c3cncnc3)cc2O[C@H]1CN(C)C(=O)c1ccc2c(c1)OCO2
  -2.6	i	-2	18	-2.5
(27) Cc1noc(C)c1NC(=O)N(C)C[C@@H]1Oc2ccc(NC(=O)Nc3ccc(F)cc3)cc2C(=O)N([C@H](C)CO)C[C@H]1C
  -12	i	2	15	2.5
(28) COc1ccccc1-c1ccc([C@H]2[C@@H](CO)N(C(=O)C3CCC3)[C@H]2C#N)cc1
  -0.2	i	1	-1	0.3
(29) COc1cccc(CCNC(=O)c2cc(COc3cccc(OC)c3)on2)c1
  -0.9	i	0	-26	-4.9
(30) CN(C)C(=O)C[C@H]1CC[C@@H](NC(=O)C2CC2)[C@@H](CO)O1
  -1.1	i	1	4	-0.3

New compounds follow.
Values in the order: MLL AF4-AF9 inh	FGF22 binding	Ecoli rRNA inh	Ecoli rRNA inh OD600	Ecoli rRNA inh RFP
(31) COCCCn1cc(CN2CC(N3CCN(Cc4cccc(C)c4)CC3)CS2(=O)=O)nn1 (stereo not given)
  -3.9	i	15	7	0.7
(32) CN1C(=O)c2cc(NC(=O)c3ccc(Cl)cc3)ccc2OC[C@@H]2O[C@H](CC(=O)NCc3cccc(F)c3)CC[C@@H]21
  -1.0	i	-11	-8	-0.9
(33) CO[C@H]1CN(C)C(=O)c2cccc(C#N)c2OCC[C@H]2CC[C@@H](OC)[C@@H](CN(C)C(=O)[C@@H]1C)O2
  2.8	i	3	11	-2.6
(34) CO[C@@H]1CN(C)C(=O)c2cc(NC(=O)c3ccccc3)ccc2OC[C@H](C)NC[C@@H]1C
  -2.8	i	1	-3	-1.3
(35) C[C@@H]1CN([C@@H](C)CO)C(=O)c2cc(NC(=O)Nc3cccc4ccccc34)ccc2O[C@H]1CN(C)S(=O)(=O)c1cn(C)cn1
  0.8	i	-4	-3	-0.6
(36) Cc1ccccc1-c1ccc2c(c1)O[C@H](CN(C)C(=O)C1CC1)[C@H](C)CN([C@H](C)CO)S2(=O)=O
  -0.7	i	-6	-9	0.2
(37) CCC(=O)Nc1ccc2c(c1)OC[C@@H](C)N(C(=O)Nc1ccccc1F)C[C@@H](C)[C@H](OC)CN(C)C2=O
  -0.6	i	1	2	0.0
(38) CC(=O)N[C@H]1CC[C@@H](CCNC(=O)C2CCCC2)O[C@@H]1CO
  1.1	i	3	4	-0.3
(39) CCc1cnc(N2[C@@H](C#N)[C@@H](c3ccc(C#CCC4CCCC4)cc3)[C@@H]2CO)s1
  2.9	i	6	-5	11
(40) C[C@@H]1CN([C@H](C)CO)C(=O)Cc2cc(NC(=O)Nc3ccc4c(c3)OCO4)ccc2O[C@@H]1CN(C)Cc1ccc(C(F)(F)F)cc1
  0.6	i	1	6	1.5
(41) C[C@@H]1CN([C@H](C)CO)C(=O)Cc2cc(NS(=O)(=O)c3ccc(F)cc3)ccc2O[C@H]1CN(C)S(=O)(=O)c1ccc(F)cc1
  -8.4	i	-1	0	1.8
(42) O=C(C[C@H]1C[C@H]2c3cc(NC(=O)CC4CC4)ccc3O[C@H]2[C@H](CO)O1)NCc1ccc2c(c1)OCO2
  -9.1	i	0	-1	-2.4
(43) COCC(=O)N1C[C@H]2CON(C)[C@H]2C[C@H]1c1cccc(-c2cc(Cl)cc(Cl)c2)c1
  3.5	i	-7	-21	-6.4
(44) COc1cccc(CN(C)C[C@H]2OCc3cnnn3CCCC(=O)N([C@@H](C)CO)C[C@@H]2C)c1
  -1.6&-1.5	i	13&1	13&6	-2.1&-1.2
(45) CCS(=O)(=O)N1CCCCN2[C@H](C1)[C@@H](c1ccc(-c3ccccc3)cc1)[C@@H]2CO
  -3.6	i	-2	0	2.9
(46) COCC(=O)N1CCC2CC1c1cc(Cl)ccc12 (stereo not given)
  -0.1	i	9	15	0.2
(47) C[C@H](CO)N1C[C@H](C)[C@H](CN(C)S(C)(=O)=O)Oc2ncc(C#Cc3ccccc3F)cc2C1=O
  -2.7	i	4	5	1.9
(48) CC(C)NC(=O)N(C)C[C@@H]1Oc2ccc(NS(=O)(=O)c3cccs3)cc2CC(=O)N([C@@H](C)CO)C[C@@H]1C
  -4.4	i	6	17	0.9
(49) c1coc(-c2cnc3ccccc3n2)c1
  -1.4	i	15	9	3.6
(50) c1ccc2c(-c3nc4ccccc4[nH]3)cccc2c1
  -0.4	i	2	14	1.9
(51) C[C@@H]1CN([C@@H](C)CO)C(=O)c2cc(C#C[C@@H](C)O)cnc2O[C@H]1CN(C)Cc1ccc(-c2ccccc2)cc1
  10	i	0	-3	-1.3
(52) COc1ccc(S(=O)(=O)Nc2ccc3c(c2)C(=O)N([C@H](C)CO)C[C@@H](C)[C@H](CN(C)S(=O)(=O)c2ccc(F)cc2)OCCCC[C@H](C)O3)cc1
  0.1	i	-3	4	1.1
(53) OC(c1ccccc1)(c1ccccc1)C1CCN(CCCOc2ccc(-c3cccnc3)cc2)CC1
  10	i	-53	-78	-15
(54) Cc1cccc(-c2cnc3cccnn23)c1
  -16	i	5	1	-0.9
(55) O=C(C[C@H]1CC[C@@H]2[C@H](COC[C@H](O)CN2C(=O)c2ccccc2F)O1)N1CCOCC1
  -0.6	i	1	-12	1.2
(56) CC(C)c1cn(CC[C@H]2CC[C@H](NC(=O)C3CC3)[C@H](CO)O2)nn1
  2.3	i	1	1	-2.7
(57) Cc1noc(C)c1NC(=O)N(C)C[C@@H]1OCCCC[C@@H](C)Oc2ccc(NC(=O)Cc3ccccc3)cc2C(=O)N([C@@H](C)CO)C[C@H]1C
  -1.6	i	2	-5	-0.1
(58) CC(Sc1nnc(C(C)Oc2ccc(F)cc2)o1)C(=O)NCc1ccc2c(c1)OCO2 (stereo not given)
  -1.5	i	-5	-16	0.2
(59) CCN1[C@@H]2c3ccc(-c4cccc(F)c4)c(=O)n3C[C@H]1[C@H](CO)[C@H]2C(=O)NCC1CC1
  -1.0	i	1	-2	-1.7
(60) CN(C)c1ccc(N=Nc2nccs2)cc1
  14	.	-7	-1	2.2

The list goes on.
Values in the order: MLL AF4-AF9 inh	FGF22 binding	Ecoli rRNA inh	Ecoli rRNA inh OD600	Ecoli rRNA inh RFP
(61) CCN1C[C@@H]2[C@@H]3C(=O)N(Cc4ccccc4)C(=O)[C@@H]3[C@](Cc3ccccc3)(C1=O)N2C(=O)c1ccc(Br)cc1
  5.7	i	-10	-23	7.1
(62) O=C(C[C@H]1CC[C@@H]2[C@H](COC[C@H](O)CN2CCC(F)(F)F)O1)N1CCC(Cc2ccccc2)CC1
  -0.4	i	-2	-22	-0.2
(63) O=P1(O)CC2=C(CC=CC2)C1
  -2.8	i	3	9	15
(64) C[C@@H]1CCCCO[C@H](CN(C)C(=O)Nc2ccc(F)cc2)[C@H](C)CN([C@@H](C)CO)C(=O)c2cc(NC(=O)Nc3ccc(F)cc3)ccc2O1
  -0.5	i	1	6	0.6
(65) CO[C@@H](CN(C)Cc1ccc(-c2ccccn2)cc1)[C@H](C)CN(C(=O)Nc1ccc(F)cc1)[C@@H](C)CO
  -0.3	i	-2	-3	-1.8
(66) O=C(c1cccc(F)c1)N1CC2(C1)[C@H](c1ccccc1)[C@@H](CO)N2C(=O)C1CC1
  -6.1	i	-3	2	-4.1
(67) C[C@@H]1CN([C@@H](C)CO)C(=O)c2cc(NC(=O)Cc3ccccc3)ccc2O[C@@H](C)CCCCO[C@@H]1CN(C)C(=O)Nc1cccc2ccccc12
  -1.1	i	-2	-3	-1.1
(68) C[C@H]1CN([C@@H](C)CO)C(=O)c2cc(NS(C)(=O)=O)ccc2O[C@@H]1CN(C)Cc1ccc(-c2ccccc2)cc1
  1.5	i	-3	11	4.2
(69) COc1ccc(NC(=O)Nc2ccc3c(c2)[C@H]2C[C@H](CC(=O)NC4CCCC4)O[C@@H](CO)[C@H]2O3)cc1
  0.2	i	2	3	1.1
(70) C[C@H](CO)N1C[C@H](C)[C@@H](CN(C)C(=O)c2cc(-c3ccccc3)on2)OCc2cnnn2CCCC1=O
  -1.0&-0.8	i	-1&4	-1&-6	2.2&-0.4
(71) CC(C)NC(=O)N(C)C[C@H]1Oc2c(NS(=O)(=O)c3ccc(Cl)cc3)cccc2C(=O)N([C@@H](C)CO)C[C@H]1C
  -0.3	i	-2	-4	-1.2

Random excerpt: five records from the list
Values in the order: MLL AF4-AF9 inh	FGF22 binding	Ecoli rRNA inh	Ecoli rRNA inh OD600	Ecoli rRNA inh RFP
(61) CCN1C[C@@H]2[C@@H]3C(=O)N(Cc4ccccc4)C(=O)[C@@H]3[C@](Cc3ccccc3)(C1=O)N2C(=O)c1ccc(Br)cc1
  5.7	i	-10	-23	7.1
(60) CN(C)c1ccc(N=Nc2nccs2)cc1
  14	.	-7	-1	2.2
(58) CC(Sc1nnc(C(C)Oc2ccc(F)cc2)o1)C(=O)NCc1ccc2c(c1)OCO2 (stereo not given)
  -1.5	i	-5	-16	0.2
(63) O=P1(O)CC2=C(CC=CC2)C1
  -2.8	i	3	9	15
(13) CCCNC(=O)N1CC2(C1)[C@@H](c1ccccc1)[C@@H](CO)N2C(=O)c1cccnc1
  -14	i	-5	10	-3.4
